Ecoli growth: E. coli growth inhibition, primary screen, OD600; Escherichia coli growth, 23 h; stronger effect = lower value; OD600 absorbance (concentration not given with the values); 330,000 compounds, 0.21% hits;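 active means OD600 absorbance below the run mean of sample wells minus 3.6 SD, in any replicate, cut at about 0.56 in these data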;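 further: stock transfer was 300 nL into about 60 µL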
Vif A3G: inhibitors of Vif binding to APOBEC3G peptide, primary screen, biochemical, TR-FRET, GST-Vif 1-94, biotin-A3G peptide, dose response retest (AID 1117319); TR-FRET GST-Vif / biotin-A3G peptide binding; higher % means a stronger effect; test concentration not given here; strong numbers were not always called active; 260,000 compounds, 0.57% hits; inhibition, %; hits with a dose series show IC50 in µM; Virion infectivity factor (Human immunodeficiency virus type 1 group M subtype B (isolate …;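 active means above the screen mean plus three standard deviations and confirmed in dose response; inconclusive means results disagree or hit not tested in dose response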;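 further: Vif residues 1-94 fused to GST binding biotinylated APOBEC3G peptide 110-148; 0% = full assay without inhibitor and 100% = GST in place of GST-Vif; retest series ran down from 100 µM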
FGF22 binding: binders of human FGF22 protein, primary screen, FGF22 synaptogenesis inhibitor project, biophysical, thermal shift, single point | Fibroblast growth factor 22 (Homo sapiens), Q9HCT0 | recombinant FGF22 thermal shift, SYPRO orange fluorescence; percent of sucrose octasulfate shift, DMSO zero | calls only at 9.99 µM | 340,000 compounds, 1.5% hits;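 active means melting point raised past a set limit in the mean and every replicate; inconclusive means no clear call; three in four hits are not shown here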
Target sequence (Q9HCT0 whole entry, looked up): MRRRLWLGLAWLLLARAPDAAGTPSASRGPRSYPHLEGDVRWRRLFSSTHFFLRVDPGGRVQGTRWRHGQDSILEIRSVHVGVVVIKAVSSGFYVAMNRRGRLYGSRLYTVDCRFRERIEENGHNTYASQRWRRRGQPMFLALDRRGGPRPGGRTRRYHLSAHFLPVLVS
rRNA inh HTS: reduced GFP signal of wild-type E. coli, primary screen, bacterial rRNA inhibitor project, GFP/RFP fluorescence, OD600, single point; E. coli WT GFP vs humanized-ribosome RFP mutants, 24 h; stronger effect = lower value; DMSO median 0, no signal -100; GFP signal change (wild-type ribosome), % (no concentration beside the values); AID 720706, 2013; 350,000 compounds, 1.6% hits;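 active means significant combined selectivity score with lowered wild-type GFP, culture density cut under 30%, mutant RFP and density less affected; inactive means any of these conditions unmet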; further: one replicate is shown; some compounds called inactive have numbers as strong as hits
ALR inh: inhibitors of human ALR sulfhydryl oxidase, primary screen, biochemical, H2O2 detection, HRP-luminol luminescence, single point; 290,000 compounds, 3.8% hits; FAD-linked sulfhydryl oxidase ALR (Homo sapiens), P55789; purified ALR, DTT oxidation; inhibition, % (no concentration beside the values); AID 485317, 2010;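 active means mean and each replicate at 75% or more; inconclusive means only one of the two met; inactive means neither met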;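 further: stock transfer was 7.5 nL into about 7.5 µL; 0% = neutral wells and 100% = wells with inactivated enzyme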
Target sequence (P55789 whole entry, looked up): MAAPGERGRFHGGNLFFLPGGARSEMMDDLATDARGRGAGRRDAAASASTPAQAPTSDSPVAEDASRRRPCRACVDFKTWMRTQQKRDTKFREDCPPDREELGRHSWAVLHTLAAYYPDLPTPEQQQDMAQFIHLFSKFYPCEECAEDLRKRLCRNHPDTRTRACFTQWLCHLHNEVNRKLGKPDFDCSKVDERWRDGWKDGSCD
AF4-AF9 inh: inhibitors of AF4 peptide binding to AF9, primary screen, biochemical, AlphaScreen, biotin-AF4 peptide, FLAG-AF9, single point. inhibition, % at 10 µM. 350,000 compounds, 0.47% hits;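 active means every replicate reaching a set inhibition limit, whatever the replicate mean, cut at about 25% in these data; inconclusive means mean inhibition reaches that limit but some replicates miss it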;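 further: 0% = plate neutral control median and 100% = total signal loss; the record names both 10 and 1 µM as test concentration; the first replicate is given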
Target sequence (P42568 whole entry, looked up): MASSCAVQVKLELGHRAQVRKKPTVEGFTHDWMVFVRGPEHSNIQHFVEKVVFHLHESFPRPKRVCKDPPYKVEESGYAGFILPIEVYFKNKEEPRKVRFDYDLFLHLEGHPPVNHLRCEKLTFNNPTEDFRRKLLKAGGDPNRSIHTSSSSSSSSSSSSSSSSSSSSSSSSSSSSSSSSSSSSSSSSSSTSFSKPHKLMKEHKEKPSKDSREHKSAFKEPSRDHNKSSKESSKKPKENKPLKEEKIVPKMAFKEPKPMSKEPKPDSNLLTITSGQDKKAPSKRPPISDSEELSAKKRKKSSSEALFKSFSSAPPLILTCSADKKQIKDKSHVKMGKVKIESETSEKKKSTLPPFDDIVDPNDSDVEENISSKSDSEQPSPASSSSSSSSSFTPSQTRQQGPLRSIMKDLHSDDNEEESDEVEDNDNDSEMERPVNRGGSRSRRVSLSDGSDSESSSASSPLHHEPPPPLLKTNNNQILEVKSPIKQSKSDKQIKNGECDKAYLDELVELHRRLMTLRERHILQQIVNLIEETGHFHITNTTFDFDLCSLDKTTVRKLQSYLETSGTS
HNF4A DNA FP: change in binding of human HNF4A to DNA, primary screen, biochemical, fluorescence polarization, FITC-DNA; 360,000 compounds, 0.3% hits; Hepatocyte nuclear factor 4-alpha (Homo sapiens), P41235; 1 h; activity change, % at 10 µM; in the data active means activity change above about 30%, passing the limit was not always enough;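 further: controls were the assay level and a saturating level of protein; the project sought stronger binding though the title names inhibitors; some compounds called inactive have numbers as strong as hits; positive values seem to mean higher polarization but the record does not say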
rRNA inh HTS OD600: further read-out of rRNA inh HTS, marked with its call; OD600 change, %; measured here: OD600 growth;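 optical density of the mix in the first replicate; 0 = DMSO median and -100 = no signal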
rRNA inh HTS RFP: further read-out of rRNA inh HTS, marked with its call; RFP signal change, %; measured here: RFP humanized mutant strains;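 first replicate; 0 = DMSO median and -100 = no signal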
* marks the source's active call; other numbers are inactive results; i = inactive; ? = inconclusive; . = not tested or not shown. The list is partial; the hit share may differ from the screen's.

SMILES	Ecoli growth	Vif A3G	FGF22 binding	rRNA inh HTS	rRNA inh HTS OD600	rRNA inh HTS RFP	ALR inh	AF4-AF9 inh	HNF4A DNA FP
COc1ccccc1NC(=O)Nc1ccc2c(c1)nc(C)n2C	0.693	?	i	-2.4	-7.3	-3.0	-4.8	-1.5	-1.2
CC(=O)OC(C[N+]1(C)CCCCCC1)c1ccccc1 (centres undefined)	0.639	-4.4%	i	1.9	10.7	-1.2	2.7	9.5	-0.7
Cc1cccc(NC(=O)c2cccnc2Cl)n1	0.707	.	i	18.4	14.4	-1.2	-4.5	0.6	-1.1
COc1cccc(CC(=O)N2CCN(c3ccccc3[N+](=O)[O-])CC2)c1	0.652	.	i	.	.	.	3.4	1.1	7.1
CC(=O)OC1c2ccccc2C(=O)N1Cc1ccccc1Cl (centres undefined)	0.711	-1.9%	i	7.7	-15.8	-10.8	-5.7	-8.6	4.3
CCOc1ccc(NC(=O)CN(C)C(=O)c2ccccc2CCc2ccccc2)cc1OCC	0.685	12.6%	i	3.1	2.5	-1.2	-25.8	-1.3	1.2
Cc1csc(C(=O)NN)c1N(C)C	0.658	.	i	-6.2	5.5	-3.1	9.8	-0.7	2.2
COc1ccc(S(=O)(=O)Nc2cccc3c2O[C@H](CN(C)Cc2ccc(C(=O)Nc4ccccc4N)cc2)[C@H](C)CN([C@H](C)CO)C3=O)cc1	.	.	i	-2.6	-1.7	-4.3	.	14.7	.
CCC(=O)N(C)C[C@@H]1Oc2cc(-c3ccc(OC)cc3)ccc2S(=O)(=O)N([C@H](C)CO)C[C@H]1C	.	.	i	0.0	-3.5	0.3	.	-0.8	.
Cc1ccc2c(c1)N(CC(=O)NCc1ccco1)C(=O)C(C(C)C)O2 (centres undefined)	0.702	-3.7%	i	-9.7	-9.3	-6.9	-1.5	-1.5	-0.1
CCOc1ccc(S(=O)(=O)NCCC(=O)N(C)Cc2cccs2)cc1	0.693	9.4%	i	-5.1	-1.2	-2.6	-4.6	2.2	-2.4
Cn1c(=O)cc(SCC(=O)NCCCN2CCOCC2)c2ccccc21	0.692	73.2%	.	.	.	.	-10.0	.	-4.7
COC(=O)c1sccc1NC(=O)CC1C(=O)NCCN1C(=O)c1c(F)cccc1Cl (centres undefined)	0.669	.	i	.	.	.	.	-2.4	4.0
NC(=O)C1CCN(CC(=O)Nc2ccccn2)CC1	0.697	-2.6%	.	.	.	.	16.4	.	4.8
O=C(N/N=C/c1ccc(F)cc1)c1cc(-c2ccco2)nc2ccccc12	.	?	.	.	.	.	-5.7	.	-44.0
CS(=O)(=O)c1ccc(-c2csc(C(O)(c3ccccc3)C(F)(F)F)n2)cc1 (centres undefined)	.	.	i	-28.9	-35.7	-9.0	.	1.9	2.3
Cc1ccccc1CCN(C(=O)c1csnn1)C(C(=O)NC1CCCC1)c1ccco1 (centres undefined)	0.703	23.8%	i	1.5	-2.4	2.3	-2.4	-0.8	-3.4
COc1ccc(C)cc1CN(C)c1ccc(S(=O)(=O)N2CCN(C)CC2)cn1	0.7	3.6%	i	0.3	-3.5	0.7	.	5.4	-5.3
CCOC(=O)CN1N=C(c2ccc(Cl)s2)CSC1=O	0.684	-9.5%	i	0.5	0.7	-1.1	9.7	14.7	0.8
CC(C)(C)c1ccc(Oc2ccc(NC(=O)c3ccccc3C(=O)O)cn2)cc1	0.667	-0.3%	i	-2.1	-22.6	7.9	92.6*	1.1	0.6
Cc1ccc([N+](=O)[O-])cc1S(=O)(=O)Nc1ccc(O)c(Sc2ncn[nH]2)c1	0.678	.	i	8.0	-0.7	3.1	94.1*	-5.1	-0.7
COC(=O)c1sccc1NC(=O)Nc1ccc(C)cc1C	0.744	-12.7%	i	-0.1	-1.8	-2.2	1.2	-1.0	5.9
CCN(C(=O)COC(=O)c1ccccc1SCC(=O)N1CCCC1)C1CCS(=O)(=O)C1 (centres undefined)	0.71	2.4%	i	2.6	4.3	-0.6	-2.2	-1.1	-0.1
CC(C)NC(=O)N1CCCCN2[C@H](CO)[C@H](c3ccc(C#C[C@@H](C)O)cc3)[C@@H]2C1	.	.	i	7.3	22.9	3.1	.	-6.5	.
O=C(Nc1ccc(N2CCN(C(=O)c3ccccc3F)CC2)cc1)c1cncc(Br)c1	0.686	.	i	0.7	-4.4	1.9	-0.1	3.4	3.6
CCc1ccc(NC(=O)N2CCN(C(=O)C3CCCO3)CC2)cc1 (centres undefined)	0.712	.	i	-1.7	8.4	1.3	-2.6	-10.1	2.1
Cn1c(=O)c2cc(NC(=O)Nc3cccnc3)ccc2n1Cc1ccc(Cl)cc1	.	.	i	-6.7	-8.3	-0.2	.	-2.4	16.1
Cc1ccc(OCCn2cc(/C(N)=N/O)c3ccccc32)cc1C	0.638	-1.8%	.	.	.	.	77.7*	.	2.3
Cc1nn(C)c(C)c1C1C(C#N)=C(N)OC2=C1C(=O)CC(C)(C)C2 (centres undefined)	.	.	i	5.4	5.7	-3.3	8.6	?	-2.5
O=C(Nc1ccccc1)[C@@H]1[C@@H](CO)[C@@H]2Cn3c(cccc3=O)[C@@H]2N1Cc1ccccc1Cl	.	.	i	-6.0	-16.6	-0.2	.	1.7	.
CC1(C)CC2CC(C)(CN2S(=O)(=O)c2ccc(N)cc2)C1 (centres undefined)	0.672	4.2%	.	.	.	.	-9.1	.	-1.7
COc1ccc(-c2cnc3c(c2)C(=O)N([C@@H](C)CO)C[C@H](C)[C@@H](CN(C)Cc2ccccn2)O3)cc1	.	.	i	1.4	5.6	-1.9	.	-4.1	.
COc1ccc(N(C(=O)c2csnn2)C(C(=O)NC2CCCC2)c2cccs2)cc1 (centres undefined)	0.701	?	i	5.9	5.3	3.7	0.3	3.3	1.5
CC1(C)CC(=O)C2=C(C1)NC(SCC(=O)Nc1ccccc1)=C(C#N)C2c1ccco1 (centres undefined)	.	20.0%	.	.	.	.	72.2	.	2.8
CC(=O)Nc1cccc(N/C(N)=N/c2nc(C)cc(C)n2)c1	0.687	.	i	9.9	7.6	-1.8	-14.8	0.5	0.9
CN(C)S(=O)(=O)c1ccc(C(=O)OCC(=O)NC(=O)NCc2ccccc2)cc1	0.738	4.7%	.	.	.	.	.	.	2.7
O=C1NC[C@@H](CCCCN2C[C@H](Cc3ccc(O)cc3)N(CC3CCCCC3)C(=O)C2=O)N(CCc2ccccc2)C1=O	.	.	i	-43.9	-69.8	-9.0	.	-7.8	0.7
COCc1cc(Sc2ccc(OC)cc2)nc(-c2ccccc2)n1	0.693	8.3%	i	16.1	9.5	5.1	.	-2.2	0.9
CCOc1ccc(NC(=O)n2ncc3c(C)cccc32)cc1	0.707	-2.0%	i	2.8	1.4	-2.5	-16.4	2.9	2.5
CN(C(=O)c1cccc(NC(=O)Cc2ccc(NC(=O)C3CCCN(C(=O)C4CCC4)C3)cc2)c1)C1CCCC1 (centres undefined)	0.667	2.6%	i	6.7	-0.9	8.4	.	-5.9	-2.6
CCN(CC)C(=O)c1sc(NC(=O)c2ccoc2C)c(C(=O)OC)c1C	0.684	11.3%	.	.	.	.	1.7	.	2.7
CC(C)NC(=O)N[C@@H]1CC[C@H](CCNC(=O)C2CCC2)O[C@H]1CO	.	.	i	1.5	1.7	-1.8	.	-1.0	.
O=C(O)CCC(=O)Nc1ccc(Oc2ncnc3cc(Cl)ccc23)nc1	0.681	6.4%	i	3.5	5.8	-1.5	-10.7	-1.7	0.7
CC(C)c1nccn1S(=O)(=O)c1cccc([N+](=O)[O-])c1	0.693	.	.	.	.	.	0.5	.	2.5
Cn1c(=O)c2c(nc(CN3CCN(c4cccc(Cl)c4)CC3)n2CCc2ccccc2)n(C)c1=O	0.764	0.3%	.	.	.	.	.	.	-1.5
CSc1sccc1/C=N/O	.	-5.7%	i	3.9	-2.9	0.5	0.5	-2.8	3.2
Cn1c(CN2CCOCC2)nc2cc(NC(=O)COc3ccccc3)ccc21	0.671	10.6%	i	-0.1	-12.0	-2.5	53.7	1.7	0.5
CCN(CC)c1ccc(/C=N/NC(=O)Cc2ccc(OC)c(OC)c2)cc1	.	-4.9%	i	11.4	13.8	0.4	.	-1.4	9.2

Whole records as entered above. Screens in order: Ecoli growth, Vif A3G, FGF22 binding, rRNA inh HTS, rRNA inh HTS OD600, rRNA inh HTS RFP, ALR inh, AF4-AF9 inh, HNF4A DNA FP
Entry for `CC(C)NC(=O)N[C@@H]1CC[C@H](CCNC(=O)C2CCC2)O[C@H]1CO` : ., ., i, 1.5, 1.7, -1.8, ., -1.0, .
Entry for `CN(C(=O)c1cccc(NC(=O)Cc2ccc(NC(=O)C3CCCN(C(=O)C4CCC4)C3)cc2)c1)C1CCCC1` (centres undefined) : 0.667, 2.6%, i, 6.7, -0.9, 8.4, ., -5.9, -2.6
Entry for `O=C(O)CCC(=O)Nc1ccc(Oc2ncnc3cc(Cl)ccc23)nc1` : 0.681, 6.4%, i, 3.5, 5.8, -1.5, -10.7, -1.7, 0.7

Next part:
SMILES	Ecoli growth	Vif A3G	FGF22 binding	rRNA inh HTS	rRNA inh HTS OD600	rRNA inh HTS RFP	ALR inh	AF4-AF9 inh	HNF4A DNA FP
CCCN(C)C[C@@H]1Oc2cc(C#Cc3ccccc3)ccc2S(=O)(=O)N([C@H](C)CO)C[C@@H]1C	.	.	i	-0.2	-12.4	9.8	.	4.6	.
CN1C(=O)c2cc(NC(=O)c3cccc(F)c3)ccc2OC[C@H]2O[C@@H](CC(=O)Nc3ccccc3)CC[C@H]21	.	.	i	-8.6	-12.8	5.7	.	-0.8	.
CCN1CCN(C(c2cc(OC)c(OC)c(OC)c2)c2nnnn2C(C)C)CC1 (centres undefined)	0.74	15.5%	.	.	.	.	-3.8	.	-1.7
Cc1cccc(N2C(=O)C(O)=C(C(=O)c3cccs3)C2c2cccc(Oc3ccccc3)c2)n1 (centres undefined)	0.677	-3.4%	i	.	.	.	97.8*	3.3	9.0
CCc1ccc(-c2nc(CN3CCC(C(=O)N4CCN(c5ccccn5)CC4)CC3)c(C)o2)cc1	0.711	-7.3%	.	.	.	.	-15.7	.	1.5
COc1ccc(N(C(=O)C(C)C)S(=O)(=O)c2ccc3c(c2)n(C)c(=O)n3C)cc1	0.718	-1.1%	.	.	.	.	-7.5	.	-1.4
COc1ccc(/C=N/NC(=O)c2ccncc2)cc1[N+](=O)[O-]	.	0.0%	.	-4.3	2.8	-3.9	-2.5	-2.3	0.9
CC(C)C(=O)N1CCC(CN=Cc2c(O)n(C3CCCCC3)c(=O)n(C3CCCCC3)c2=O)CC1	0.75	1.4%	.	.	.	.	.	.	-3.2
O=C(COC(=O)c1ccc(Cl)c(S(=O)(=O)NCc2ccccc2)c1)NC1CC1	0.704	.	i	6.9	4.6	-1.0	2.2	1.1	-0.5
COc1ccc(N=Cc2oc3ccc4ccccc4c3c2O)cc1	0.658	5.9%	i	-1.2	-4.4	8.8	-22.1	1.2	34.7
CCCC(=O)Nc1ccc2c(c1)C(=O)N(C)C[C@H](OC)[C@H](C)CN(C(=O)C1CCCC1)[C@H](C)CO2	.	.	i	-3.5	-3.1	-3.8	.	3.2	.
